Screens deposited in PubChem BioAssay by several laboratories.
T cruzi repl – T. cruzi replication inhibition. AID 1885. hit rate 1.4% among 300,000. inhibition, % (no concentration beside the values). T. cruzi beta-gal in NIH3T3, luminescence, 90 h;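 active means mean inhibition across valid replicates above about 55%, limit read from the data; inconclusive means mean below that limit but half or more replicates reach it; inactive means mean below it, under half of replicates reach it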;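 further: signal also drops with host cell toxicity which is not excluded here; 0% = plate median of DMSO wells and 100% = zero luminescence signal; higher percent means less beta-gal luminescence so fewer parasites; stock transfer was 50 nL into about 50 µL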
LANA-H2B inh – blocks KSHV LANA binding to histone H2A/H2B | Q9QR71 | inhibition, % (concentration not given with the values) | cell-free LANA-H2A/H2B peptide, fluorescence polarization | AID 2629 | hit rate 0.6% among 320,000; in the data active means inhibition mostly above about 10%, no sharp cut-off; inactive means mostly below about 6.7%;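 further: stock transfer was 7.5 nL into about 10 µL; 0% = median of vehicle wells and 100% = median of positive control wells; one replicate is shown; the record names a cut of 25% in any replicate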
B2AR ag – activates human beta-2 adrenergic receptor causing internalization; P07550; Am2.2-beta2AR cells, FAP receptor internalization, flow cytometry; reference of the scale not given here; response, % (no concentration beside the values); hit rate 0.43% among 340,000; AID 504454;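 active means response above a set limit, near 3 SD of response in nonfluorescent compounds, cut at about 42% in these data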;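 further: stock transfer was 100 nL into about 11 µL; a reference agonist was the positive control; negative values mostly stem from fluorescent compounds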
Target sequence (P07550 whole entry, looked up): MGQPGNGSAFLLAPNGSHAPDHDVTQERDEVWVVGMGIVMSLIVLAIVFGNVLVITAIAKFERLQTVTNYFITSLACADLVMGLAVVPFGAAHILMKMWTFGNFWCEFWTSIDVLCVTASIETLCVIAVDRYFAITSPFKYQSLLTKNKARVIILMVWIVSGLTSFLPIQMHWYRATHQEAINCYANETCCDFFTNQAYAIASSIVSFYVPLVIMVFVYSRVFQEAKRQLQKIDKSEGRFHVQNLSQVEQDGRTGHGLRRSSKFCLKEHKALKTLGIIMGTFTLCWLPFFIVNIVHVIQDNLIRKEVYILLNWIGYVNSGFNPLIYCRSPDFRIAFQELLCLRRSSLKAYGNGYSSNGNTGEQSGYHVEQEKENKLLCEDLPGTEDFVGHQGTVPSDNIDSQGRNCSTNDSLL
Bfl-1 A1 inh – inhibitors of the anti-apoptotic protein A1, read as caspase activation. caspase activation, % (no concentration beside the values). AID 2462. MEF A1-2A-BIM cells, Caspase-Glo 3/7 luminescence, 3 h; percent of clofoctol response, vehicle zero. hit rate 0.066% among 330,000;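 active means over half of replicate activation scores above 10%, or exactly half above 10 with the replicate mean above 10; inconclusive means replicate mean below 10 yet half the replicates above 10; inactive means over half of replicates below 10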;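 further: wells of about 30 µL received 50 nL stock; many hits fall short of the cut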
Beta apoptosis – beta cell apoptosis inhibition | INS-1E cytokine-induced death, ATP luminescence, 48 h; percent of positive-control rescue, neutral wells zero | protection from apoptosis, % (test concentration not listed) | hit rate 0.8% among 300,000 | AID 435005;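 active means all replicates at 75% or more, or half of them and the mean; inconclusive means half reach 75% but not the mean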;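 further: 0% = cytokine-treated negative control wells and 100% = positive control rescue; higher means more ATP so stronger rescue from cytokine killing; wells of about 40 µL received 100 nL stock; the first replicate is given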
rRNA inh HTS – inhibitors of bacterial rRNA selective over humanized ribosomes. GFP signal change (wild-type ribosome), % (concentration not given with the values). hit rate 1.6% among 350,000. AID 720706. E. coli WT GFP vs humanized-ribosome RFP mutants, fluorescence, 24 h; hits give low values; DMSO median 0, no signal -100;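 active means significant combined selectivity score with lowered wild-type GFP, culture density cut under 30%, mutant RFP and density less affected; inactive means any of these conditions unmet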; further: one replicate is shown; some compounds called inactive have numbers as strong as hits
Calb FLC – affects C. albicans growth with fluconazole; hit rate 0.57% among 300,000; C. albicans CaCi-2 (fluconazole-resistant clinical isolate) + fluconazole, Alamar Blue growth, 48 h; growth inhibition, % (no concentration beside the values);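 active means most replicates above 75%; inconclusive means exactly half above 75%; inactive means most below 75%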;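 further: all wells also contain fluconazole at 8 µg/ml as a sub-toxic cotreatment; 0% = median of DMSO wells and 100% = median of geldanamycin control wells; wells of about 8 µL received 7.5 nL stock; the first replicate is given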
ALR H2O2 inh – blocks human ALR sulfhydryl oxidase activity | purified ALR, DTT oxidation, H2O2 HRP-luminol luminescence | P55789 | hit rate 3.8% among 290,000 | inhibition, % (concentration not given with the values);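 active means mean and each replicate at 75% or more; inconclusive means only one of the two met; inactive means neither met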;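 further: stock transfer was 7.5 nL into about 7.5 µL; 0% = neutral wells and 100% = wells with inactivated enzyme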
Target sequence (P55789 whole entry, looked up): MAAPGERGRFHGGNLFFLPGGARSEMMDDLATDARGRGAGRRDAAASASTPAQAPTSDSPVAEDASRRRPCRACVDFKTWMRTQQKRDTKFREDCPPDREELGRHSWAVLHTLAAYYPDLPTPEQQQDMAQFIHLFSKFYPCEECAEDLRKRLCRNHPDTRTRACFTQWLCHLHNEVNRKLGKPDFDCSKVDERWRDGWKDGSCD
rRNA inh HTS OD600 – second read-out of rRNA inh HTS, no call of its own (marks repeat the call); OD600 change, %; measured here: OD600 growth;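 optical density of the mix in the first replicate; 0 = DMSO median and -100 = no signal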
rRNA inh HTS RFP – further read-out of rRNA inh HTS, marked with its call; RFP signal change, %; measured here: RFP humanized mutant strains;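 first replicate; 0 = DMSO median and -100 = no signal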
The depositor's hits bear a star; ? = inconclusive; / = not tested or not shown. This is a subset; the hit share may differ from the screen's.

SMILES | T cruzi repl | LANA-H2B inh | B2AR ag | Bfl-1 A1 inh | Beta apoptosis | rRNA inh HTS | rRNA inh HTS OD600 | rRNA inh HTS RFP | Calb FLC | ALR H2O2 inh
COc1ccc(OC)c(CN2CCN(C(=O)c3cccc(S(=O)(=O)Nc4ccccc4OC)c3)CC2)c1 | 15 | 1.2 | -3 | 0.2 | -5 | -15 | -18 | 1.6 | 0 | -1
O=C(CSc1n[nH]c(=O)n1Cc1ccco1)Nc1ccccc1 | -13 | -0.5 | 0 | 0.0 | -2 | 7 | 6 | 4.0 | 14 | -10
O=C(CSc1nnc(-c2cccnc2)s1)Nc1cccc(C(=O)O)c1 | -11 | -0.3 | -5 | 0.0 | 4 | / | / | / | -1 | 17
COc1ccc(C2(CNC(=O)C(c3ccccc3)c3ccccc3)CCOCC2)cc1OC | -4 | 3.7 | 3 | 1.3 | 2 | 3 | -2 | 0.6 | 3 | -8
Cc1cccc(NC(=O)c2cc(Cl)nc3ccccc23)c1 | -12 | 0.1 | 1 | -0.5 | / | / | / | / | -27 | -5
CCC(NC(=O)C(C)NC)C(=O)N1CCCC1C(=O)NC1CCCc2ccccc21 (centres undefined) | / | 0.2 | 0 | ? | 36 | 9 | 0 | -1.0 | / | -6
Cc1nc2ccccc2c(=O)n1/N=C/c1ccccc1OC(F)F | -6 | -7.7 | -4 | 0.9 | 1 | 11 | 19 | 3.0 | -2 | 4
COc1ccccc1NC(=O)C1=C(C)Nc2nc(-c3cccs3)nn2C1c1cccc(O)c1 (centres undefined) | -10 | 4.3 | -5 | 1.2 | 0 | / | / | / | 17 | /
CCOc1ccc(C2C=C(c3ccc(C)cc3)Nc3ncnn32)cc1 (centres undefined) | -14 | 3.9 | / | 2.0 | 8 | / | / | / | 38 | 0
C=C(C)C(=O)N1CC2(CC(c3cccc(NC(=O)CC(c4ccccc4)c4ccccc4)c3)=NO2)C[C@H]1C(N)=O (some centres undefined) | 22 | 3.3 | 32 | -1.4 | 2 | 2 | -5 | 3.9 | 16 | -1
Cc1nc2ccccc2n1CCOc1ccc(F)cc1 | -18 | -1.2 | -4 | 1.4 | -7 | -28 | -40 | -5.3 | 3 | -11
COc1ccc(CCNC(=O)COc2ccc(S(=O)(=O)N3CCOCC3)cc2)cc1 | -18 | -4.6 | -1 | 0.8 | 3 | / | / | / | -30 | -3
O=C(N/N=C\c1cccc(Cl)c1)c1ccc(Cn2cc(Br)c([N+](=O)[O-])n2)o1 | 54 | -0.8 | 1 | 0.1 | 2 | / | / | / | -14 | 0
C=CCn1c(=O)c2c(nc(-n3nc(C)cc3C)n2C)n(C)c1=O | -14 | 1.1 | -2 | 0.9 | -1 | 15 | 7 | -0.8 | 3 | -1
O=c1c(-c2ccc(Cl)cc2)coc2c(CN3CCCCC3)c(O)ccc12 | 5 | 1.6 | 0 | -0.3 | -5 | 14 | 16 | 0.2 | -4 | -3
O=C(N/N=C/C=C\c1ccccc1[N+](=O)[O-])c1cc(-c2ccc3ccccc3c2)n[nH]1 | -21 | / | 6 | / | / | -6 | 2 | -1.4 | 26 | /
CC(/C=N/NC(=O)c1cc(-c2ccncc2)nc2ccccc12)=C\c1ccco1 | -14 | 2.6 | 19 | 0.0 | 13 | 1 | -4 | -0.9 | -3 | -29
COc1ccc(S(=O)(=O)N2CCCCCC2)cc1C(=O)NCCc1ccc(F)cc1 | / | -2.2 | 2 | 0.0 | -1 | -27 | -41 | -2.8 | / | -1
CCCc1cc(=O)oc2cc(Oc3ncccn3)ccc12 | -1 | -0.2 | -9 | 0.3 | -2 | / | / | / | ? | /
O=C(O)CN1C(=O)C2C3CC(C2C1=O)C1C(c2ccc(F)cc2)c2sc(=O)[nH]c2SC31 (centres undefined) | -3 | -4.6 | -4 | 0.4 | 6 | 15 | 14 | -0.8 | -2 | 10
COc1cc(/C=C/C(=O)OCC(=O)Nc2c(C)n(C)n(-c3ccccc3)c2=O)ccc1OCC#N | 7 | -0.6 | -3 | -1.4 | -4 | -11 | 1 | 9.2 | 16 | 2
COc1ccccc1CC(=O)NNS(=O)(=O)c1cccc([N+](=O)[O-])c1 | -3 | -3.6 | 0 | 0.3 | -2 | -5 | 8 | -2.0 | 7 | -6
COc1ccc(N/C=C(\C#N)S(=O)(=O)c2ccc(OC)cc2)cc1 | 1 | 2.3 | -3 | -0.1 | -8 | -4 | -2 | 3.2 | -2 | 3
COc1ccc(-c2[nH]ncc2CN2CCN(c3ccccn3)CC2)c(OC)c1 | 19 | -2.9 | 1 | 0.0 | -6 | 7 | 10 | -0.1 | -23 | -5
Cc1cccc2sc(NC(=O)CCn3cccc3)nc12 | -9 | 3.9 | 7 | 0.1 | 2 | -30 | -37 | -10.0 | -31 | -2
SMILES | T cruzi repl | LANA-H2B inh | B2AR ag | Bfl-1 A1 inh | Beta apoptosis | rRNA inh HTS | rRNA inh HTS OD600 | rRNA inh HTS RFP | Calb FLC | ALR H2O2 inh
CCOc1ccc(NC(=O)NCCCSC2CCCCC2)cc1 | 53 | -2.4 | -1 | 0.5 | 11 | / | / | / | -5 | -5
CCOC(=O)N1CCN(c2cc(N(C)CCO)c([N+](=O)[O-])c3nonc23)CC1 | 3 | / | -12 | / | / | 3 | 5 | 9.7 | 0 | /
CCOC(=O)c1cnc(-n2nc(C)cc2C)nc1N1CCOCC1 | 4 | -0.6 | 0 | -0.1 | 0 | / | / | / | 13 | -4
N#Cc1ccccc1Sc1ccccc1C(=O)OCc1nnc(-c2ccccc2)o1 | -5 | -1.7 | 2 | -0.6 | 2 | / | / | / | 4 | -10
O=C(NCCc1ccccc1)c1ccc2nc3cc(Cl)ccc3c(=O)n2c1 | 0 | 8.0 | 9 | 0.5 | 10 | 10 | 7 | 3.1 | 7 | -5
COc1ccc(C(=O)N2CCN(c3ccc(NC(=O)c4cccnc4)cc3)CC2)cc1 | 11 | -4.2 | -1 | 0.6 | 2 | 4 | 4 | -1.1 | 10 | 14
CCOC(=O)[C@H]1[C@H]2COc3ccc(C)cc3[C@@H]2N2C(=O)c3cc(F)ccc3NC(=O)[C@@]12C | / | -1.9 | 2 | -0.2 | 2 | -15 | -29 | -15 | / | -1
CC(=O)c1ccc(NC(=O)Nc2ccc(Br)cc2C)cc1 | 18 | -0.5 | 4 | 0.3 | 5 | -19* | 1.1* | 5.0* | -23 | 10
CCn1c(SCc2ccc(Cl)c(Cl)c2)nnc1C(C)NC(=O)c1ccc(OC)cc1 (centres undefined) | 15 | 0.1 | -3 | 0.4 | -10 | 6 | 8 | -0.3 | 11 | 0
O=C(NC(=S)N1CCCc2ccccc21)c1ccc(Br)cc1 | 32 | -2.3 | 22 | -0.6 | -1 | / | / | / | -3 | 8
COc1cccc(NC(=O)C(=O)NCCc2ccc(F)cc2)c1 | 11 | -1.1 | 1 | -4.0 | -1 | -3 | 9 | -3.3 | -1 | -9
S=c1nc(-c2ccccc2)c(-c2ccccc2)n[nH]1 | 2 | 2.4 | 8 | -0.2 | -10 | 5 | 1 | -5.9 | 5 | 86*
COc1ccc2occ(C(=O)c3coc4ccc(O)c(CN(C)C)c34)c2c1 | 11 | -3.2 | 7 | 1.5 | 4 | / | / | / | -7 | 3
COC(=O)c1ccc(N2CCN(c3ccccc3)CC2)c(N)c1 | 8 | 1.5 | -1 | 0.0 | -5 | 7 | 4 | -1.2 | -2 | /
CC(C)n1cnc2c(oc3ccccc32)c1=O | -9 | 2.1 | -5 | -0.3 | -3 | 16 | 14 | -0.1 | -4 | -1
CC1(C)NC(=O)N(CC(O)COc2ccc(-c3ccccc3)cc2)C1=O (centres undefined) | -5 | 0.6 | -3 | 0.2 | -2 | / | / | / | -2 | -2
Cc1ccccc1CSc1nsc(N)n1 | 3 | -1.2 | -8 | 1.0 | -7 | / | / | / | -29 | -123
[O-]/C(=C(\C(=S)NCc1ccccc1)[n+]1ccccc1)c1ccc(Cl)cc1 | -6 | -0.9 | -6 | 0.1 | 11 | 0 | -4 | 2.9 | -5 | -13
Cc1cc(=O)nc2c3ccccc3n(CC(=O)NCCCN3CCCC3=O)n12 | 6 | 6.2 | 6 | 0.9 | -6 | 8 | 11 | -0.4 | 0 | -5
Cc1ccc(C(=O)c2nocc2C(=O)c2cccs2)cc1 | 4 | -0.7 | 5 | 1.1 | -6 | / | / | / | -5 | 4
COc1ccc(C(=O)N2CC(=O)Nc3ccccc32)cc1S(=O)(=O)N1CCCC1 | -16 | -1.2 | 10 | -0.7 | -5 | 9 | 6 | -2.5 | -4 | -6
COc1nc(Nc2ccccc2)nc(OC)n1 | 9 | -3.5 | 0 | -2.4 | / | 3 | 1 | 0.8 | -6 | -4
COCCCn1ccc(O)c(Cc2ccc(F)cc2)c1=O | -7 | -13 | 0 | 0.4 | -4 | / | / | / | -8 | 6
COC(=O)c1cc([N+](=O)[O-])ccc1N1CCN(Cc2ccccc2)CC1 | -7 | 0.4 | -4 | 0.1 | -5 | / | / | / | -3 | 1
CCCC(=O)NCCc1cc2ccc(OC)cc2[nH]c1=O | -15 | 2.1 | -15 | -0.1 | -2 | / | / | / | 4 | -25
CN(C)CCCn1c(=O)n(CCc2ccccc2)c(=O)c2c3c(sc21)CCCCC3 | 61* | -1.4 | 17 | 0.4 | / | -49 | -57 | -9.3 | 2 | /
Cc1ccc(CNC(=O)C2CCC(=O)N(CCCN3CCOCC3)C2)cc1 (centres undefined) | -20 | -1.1 | 9 | 0.1 | -1 | 8 | 6 | 2.2 | -4 | -2
COc1ccccc1C(=O)O/N=C1/CCCc2c1ccc(OC)c2[N+](=O)[O-] | 8 | -0.6 | 5 | 0.4 | -6 | / | / | / | 7 | -28
O=C(COc1ccccc1)NNc1nc2ccccc2s1 | -10 | 0.6 | 2 | 0.1 | -2 | -28* | 7.6* | -3.8* | -4 | 99*
COc1ccc(N2CCN(S(=O)(=O)c3cc(Br)cnc3N)CC2)cc1 | 1 | -2.1 | 5 | 0.5 | -2 | 18 | 20 | 0.5 | 0 | 2

A draw from above in order of length of the SMILES, descending.
SMILES | T cruzi repl | LANA-H2B inh | B2AR ag | Bfl-1 A1 inh | Beta apoptosis | rRNA inh HTS | rRNA inh HTS OD600 | rRNA inh HTS RFP | Calb FLC | ALR H2O2 inh
CCn1c(SCc2ccc(Cl)c(Cl)c2)nnc1C(C)NC(=O)c1ccc(OC)cc1 (centres undefined) | 15 | 0.1 | -3 | 0.4 | -10 | 6 | 8 | -0.3 | 11 | 0
Cc1ccc(CNC(=O)C2CCC(=O)N(CCCN3CCOCC3)C2)cc1 (centres undefined) | -20 | -1.1 | 9 | 0.1 | -1 | 8 | 6 | 2.2 | -4 | -2
O=C(CSc1n[nH]c(=O)n1Cc1ccco1)Nc1ccccc1 | -13 | -0.5 | 0 | 0.0 | -2 | 7 | 6 | 4.0 | 14 | -10
COCCCn1ccc(O)c(Cc2ccc(F)cc2)c1=O | -7 | -13 | 0 | 0.4 | -4 | / | / | / | -8 | 6
CC(C)n1cnc2c(oc3ccccc32)c1=O | -9 | 2.1 | -5 | -0.3 | -3 | 16 | 14 | -0.1 | -4 | -1
